High-throughput results deposited in PubChem BioAssay by National Center for Advancing Translational Sciences (NCATS).
VACV Venus inh: qHTS for Stage-Specific Inhibitors of Vaccinia Orthopoxvirus: Venus Reporter Primary qHTS; Vaccinia virus Venus reporter expression, fluorescence; actives 0.46% (n = 330,000); Potency, µM (titrated, usually from 36.5 µM), inactives show at the top dose activity change, negative = inhibition, actives largely listed as inhibitors; active means well fitted inhibition curve with a large enough effect; inconclusive means small, poorly fitted or top-dose-only effect; inactive means no such curve, though single readings can be large or run the other way; tested in A549 cells; further: nearly all actives have a fitted effect of over 30% in size; inactives centre near -10
Vaccinia mCherry: qHTS for Stage-Specific Inhibitors of Vaccinia Orthopoxvirus: mCherry Reporter Primary qHTS | Vaccinia virus mCherry reporter infection, fluorescence; about a quarter of the inactives have no number | Potency, µM (top dose mostly 36.5 µM), for the others: at the highest dose activity change, negative = inhibition, actives largely listed as inhibitors | actives 0.63% (n = 310,000) | AID 720579, 2013; active = well fitted inhibition curve with a large enough effect; inconclusive = small, poorly fitted or top-dose-only effect; inactive = no such curve, though single readings can be large or run the other way; tested in A549 cells; further: nearly all actives have a fitted effect of over 35% in size; inactives centre near -10
* hit, by the source's call; i = inactive; ? = inconclusive; . = no result given; & = joins results of further samples; [ ] = dose if it differs, or a comment. On the % scale 0 is the no-effect control and ±100 the full control effect; potency means the concentration at half of the fitted maximal effect.

The line under a structure holds: VACV Venus inh, Vaccinia mCherry
O=C(CSc1nc2ccsc2c(=O)n1Cc1ccc(C(=O)O)cc1)NCC1CCCO1 (stereo not drawn)
 : -9%, -11%
Cc1cccc(N2N=C(C(=O)Nc3nc(C)cs3)CCC2=O)c1
 : -1%, -18%
N#CCCN(Cc1ccncc1)C(=S)NC1CC2C=CC1C2 (stereo not drawn)
 : -11%, i
COc1ccc(CCc2nnc(NS(C)(=O)=O)s2)cc1
 : -13%, i
CC(C)CC(=O)OC1C(N2CCOCC2)c2c(ccc(/C=C/C(=O)N3CCOCC3)c2O)OC1(C)C (stereo not drawn)
 : -7%, i
CCOc1ccccc1N(CC(=O)Nc1ccc(S(=O)(=O)N2CCOCC2)cc1)S(=O)(=O)c1ccc(Cl)cc1
 : 1%, i
COc1ccccc1CN1C[C@@H]2C[C@@H](c3cccc(C)c3)N3CCC[C@@]23C1=O
 : -6%, -26%
CCOC(=O)c1cccc(NC(=O)c2ccc3c(c2)nnn3C2CCCC2)c1
 : -8%, -13%
N/C(Cc1cccs1)=N\OC(=O)COc1ccc(Br)cc1
 : 0%, 2%
CCN(CC)c1ccc(C(=O)OCC(=O)Nc2cc3oc4ccccc4c3cc2OC)cc1
 : -25%, -19%
CCCCN1CC(CO)Oc2cccc(F)c2S1(=O)=O (stereo not drawn)
 : 1%, i
CC(=O)Nc1ccc(OCc2ccc3c(c2)OCO3)cc1
 : -12%, ?
O=C(CCNS(=O)(=O)c1ccc2[nH]c(=O)oc2c1)NCc1ccc(F)cc1
 : -9%, i
CCc1cccc(NC(=O)c2snc3c(=O)[nH]cnc23)c1
 : -24%, -10%
COCCn1c(SCC(=O)Nc2nc(C)cs2)nnc1C(C)C
 : -9%, -16%
CN1C(C(=O)NCc2ccccc2)CC2Cn3c(nc4ccccc43)C21 (stereo not drawn)
 : -7%, -9%
O=S(=O)(N1CCOCC1)n1nnc2ccccc21
 : -4%, -8%
CCOc1ccccc1NC(=O)CC1Nc2cc(C)c(C)cc2NC1=O (stereo not drawn)
 : -10%, .
O=P(Nc1ccccc1)(Nc1ccccc1)c1ccccc1
 : -9%, i
COc1cccc(NC(=O)CNC(=O)c2ccccc2)c1
 : -11%, .
CCOc1ccc(-n2c(N)c(-c3nc4ccccc4[nH]3)sc2=S)cc1
 : -13%, -23%
O=C(Cn1ncc2c3ccccc3n(Cc3ccccc3F)c2c1=O)N1CCN(c2ccccn2)CC1
 : ?, -30%
CCOCCOC(=O)COc1ccc2c(-c3ccccc3)cc(=O)oc2c1
 : -5%, -11%
COc1ccc(CNC(=O)c2cn(Cc3ccccc3F)c(=O)s2)cc1
 : 3%, i
Fc1ccccc1/C=N/n1c(-c2cccnc2)n[nH]c1=S
 : 4%, -5%
Cc1ccc(CN(Cc2cccn2-c2nnc(N3CCCC3=O)s2)C(=O)Nc2ccccc2C(F)(F)F)cc1
 : -12%, i
COc1cc(OC)cc(-c2sc3ccc(OC)cc3c2C#CC(C)(C)O)c1
 : ?, ?
COC(=O)C(C(=O)Nc1ccccc1C)C1CCCCCC1 (stereo not drawn)
 : -2%, -5%
O=C(Nc1ncccc1O)c1ccc(NS(=O)(=O)c2ccc3[nH]c(=O)[nH]c3c2)cc1
 : -8%, -15%
CCSC(=S)c1c(C)[nH]n(-c2ccccc2)c1=O
 : -25%, -17%
Cc1cccc(NS(=O)(=O)c2cnc(Cl)c(Br)c2)n1
 : -11%, -27%
COc1ccc(S(=O)(=O)CCc2nnc(NC(C)=O)s2)cc1
 : 2%, i
CC1CN/C(=C\C(=O)c2ccc(Br)cc2)C(=O)N1 (stereo not drawn)
 : -8%, -15%
CCCN(C(=O)C(=O)Nc1ccc2nc3n(c(=O)c2c1)CCCCC3)c1ccc(OCC)cc1
 : -7%, 4%
C=CCN(CC=C)CCOc1cc(C)ccc1[N+](=O)[O-]
 : -7%, -18%
O=C1CCc2ccc(NC(=O)C3CC3)cc2N1
 : 5%, i
C[n+]1ccc(/C=C/c2ccc(F)cc2)c2ccccc21
 : ?, ?
Cc1ccccc1NC(=O)CCn1nc(-c2ccc(Cl)cc2)c2ccccc2c1=O
 : -16%, -20%
N#Cc1ccc2[nH]c(CO)c(-c3ccccc3)c2c1
 : ?, -23%
Cc1cc(N)n(-c2ccc(Cl)cc2)n1
 : -4%, -8%
Cn1cc(CNC(=O)C2c3ccccc3Oc3ccccc32)cn1
 : -8%, i
COC(=O)c1ccccc1S(=O)(=O)NNC(=O)c1nn(C)c(=O)c2ccccc12
 : -5%, -22%
O=[N+]([O-])c1ccccc1O[C@@H]1O[C@H](CO)[C@H](O)[C@H](O)[C@H]1O
 : 6%[7.34 µM], 0%[7.34 µM]
CCOC(=O)c1c(CSc2ccccc2)n(C)c2ccc(O)c(CN3CCOCC3)c12
 : 3%, ?
CC(=O)NCCc1ccc(C(=O)COC(=O)c2cccs2)cc1
 : -7%, i
CC(C)C(=O)NC1CC(=O)N(c2ccc3c(c2)OCCO3)C1 (stereo not drawn)
 : -6%, -18%
Cc1cc(=O)oc2c1c(C)nn2-c1ccc(Br)cc1
 : -13%, -8%
CCSc1nnc(NC(=O)NC(CC)(C(F)(F)F)C(F)(F)F)s1
 : 28µM*, .
CCc1ccc(OCC(=O)OCC(=O)NC2CCCC(C)C2C)cc1 (stereo not drawn)
 : -11%, -1%
COc1ccc(CN2CCN(c3cc(C)nc4c5c(C)cc(C)nc5nn34)CC2)cc1F
 : -4%, -1%

Further compounds follow.
The line under a structure holds: VACV Venus inh, Vaccinia mCherry
O=C1CC(c2ccccc2)=NN1c1ccccc1
 : -22%, ?
Cc1ccc2[nH]c(=O)c3cc(C(=O)N4CCN(c5ccccc5F)CC4)sc3c2c1
 : -4%, 2%
Cc1cccc(SCC(=O)Nc2ccccc2[N+](=O)[O-])c1
 : -1%, -4%
O=c1c2nnn(Cc3ccc(Cl)cc3)c2ncn1Cc1ccc(F)cc1
 : -10%, -16%
CCOC(=O)c1c(S(=O)(=O)N2CCCC(C(=O)Nc3ncccc3C)C2)c(C)n(C)c1C (stereo not drawn)
 : -11%, -4%
COc1ccc(-c2c(C(C)=O)c(C)nc3sc4c(=O)n(-c5ccc(C)cc5)nnc4c23)cc1
 : -7%, i
COC(=O)COc1ccc(NS(=O)(=O)c2cccc([N+](=O)[O-])c2)cc1
 : -11%, -5%
Cn1c(SCC(=O)NCc2ccccc2)nnc1C1CC1
 : 3%, -8%
CC1=C(C(=O)OCc2ccccc2)C(c2ccco2)n2ncnc2N1 (stereo not drawn)
 : -12%, -16%
CN(CC(=O)Nc1ccc(F)c(F)c1F)C(=O)CC1OC(=O)c2ccccc21 (stereo not drawn)
 : -8%, -19%
O=C(NC(=S)NCc1nc2ccccc2[nH]1)c1ccc(F)cc1
 : -30%, ?
CC1(C)Cc2cccc(OCC(=O)OCC(=O)Nc3ccc(C(N)=O)cc3)c2O1
 : -6%, i
O=C(COC(=O)/C=C/c1cccc(C(F)(F)F)c1)Nc1cccc2ccccc12
 : -5%, -17%
CCOC(=O)c1ccc(NC(=S)NCC(O)c2ccccc2)cc1 (stereo not drawn)
 : 2%, -7%
CCOc1ccc(C2C(C#N)=C(N)N3C(=C2C#N)Sc2ccccc23)cc1 (stereo not drawn)
 : -3%, -13%
Cn1nc(C(C)(C)C)cc1C(=O)NNC(=O)c1ccccc1Cl
 : -19%, i
Cc1cc(NS(=O)(=O)c2ccc(NC(=S)NCc3ccccc3)cc2)no1
 : -6%, -24%
COC(=O)Cn1c(=NC(=O)CN2C(=O)CCC2=O)sc2cc(S(N)(=O)=O)ccc21
 : -9%, i
Cc1cnc(C(=O)OCC(=O)Nc2cccc(S(=O)(=O)N3CCOCC3)c2)cn1
 : -15%, -4%
NC(=O)CCC(C(=O)O)N1C(=O)C2C3CCC(C3)C2C1=O (stereo not drawn)
 : -11%, -8%

Entries from the list above that contain a thiophene ring, fused or not, in the order listed:
The line under a structure holds: VACV Venus inh, Vaccinia mCherry
O=C(CSc1nc2ccsc2c(=O)n1Cc1ccc(C(=O)O)cc1)NCC1CCCO1 (stereo not drawn)
 : -9%, -11%
N/C(Cc1cccs1)=N\OC(=O)COc1ccc(Br)cc1
 : 0%, 2%
COc1cc(OC)cc(-c2sc3ccc(OC)cc3c2C#CC(C)(C)O)c1
 : ?, ?
CC(=O)NCCc1ccc(C(=O)COC(=O)c2cccs2)cc1
 : -7%, i
Cc1ccc2[nH]c(=O)c3cc(C(=O)N4CCN(c5ccccc5F)CC4)sc3c2c1
 : -4%, 2%
COc1ccc(-c2c(C(C)=O)c(C)nc3sc4c(=O)n(-c5ccc(C)cc5)nnc4c23)cc1
 : -7%, i

Later entries:
The line under a structure holds: VACV Venus inh, Vaccinia mCherry
CCc1cnc(Nc2nc(C(N)Cc3ccc(F)cc3)cs2)nc1 (stereo not drawn)
 : ?, -9%
COC(=O)c1ccc(Cn2c(C)c(C(=O)Nc3cccc(Oc4ccccc4)c3)sc2=O)o1
 : -18%, -4%
Cc1nc(SCC(=O)c2ccc(F)c(F)c2)[nH]c(=O)c1Oc1ccc(F)cc1
 : -3%, -3%
O=Cc1sc(=O)n(Cc2cccc(C(=O)O)c2)c1Cl
 : 21%, -5%
O=C(c1cccc(COCC(F)(F)C(F)F)c1)N1CCN(c2ccccc2)CC1
 : -13%, -18%
COc1cc(/C=N/NC(=O)CNS(=O)(=O)c2ccc(C)cc2)cc(OC)c1OC
 : -15%, i
CC(=O)Nc1cccc(NC(=O)c2c(-c3ccccc3)noc2C)c1
 : -14%, .
CC(C)Cc1ccc(C(C)C(=O)Nc2ncccn2)cc1 (stereo not drawn)
 : -7%, -9%
COc1cc(Br)cc2cc(C(=O)N3CCOCC3)c(=O)oc12
 : -16%, -15%
Cc1ccc(/C=C/C(=O)Nn2cnnc2)cc1
 : -24%, .

The results go on:
Structure | VACV Venus inh | Vaccinia mCherry
O=C(CCc1ccc(S(=O)(=O)NCc2ccccc2)cc1)NCc1cccnc1 | -1% | -18%
O=C(COC(=O)Cc1ccc(F)cc1)NC1CCCCC1 | -4% | -14%
O=C(Oc1ccccc1)c1c(Cl)cccc1P(=O)(O)O | 1% | .
O=C1SCCN1N=Cc1ccc([N+](=O)[O-])o1 | ? | ?
CCOc1ccc(NC(=S)Nc2ccc(Br)cc2Cl)cc1 | -13% | -15%
COc1ccc2c(c1)CCC(C)N2C(=O)C(=O)c1c[nH]c2ccccc12 (stereo not drawn) | ? | -15%
CNC(=S)NNC(=O)c1ccccc1F | -2% | i
CN(C)S(=O)(=O)c1cccc(NC(=O)CCCSc2ccccc2)c1 | -9% | -16%
COc1cc2nc(N3CCCN(C)CC3)nc(Nc3ccncc3)c2cc1OC | ? | -10%
Cc1cccc(-n2nc3c(c2NC(=O)c2ccc(Br)o2)CSC3)c1 | 4% | -4%
CC1(CC(=O)N/N=C/c2ccc(-c3ccc(Cl)cc3)o2)OCCO1 | -12% | -18%
COc1ccc(-c2cc3nc(NCC4CCCCC4)n(C)c(=O)c3s2)cc1OC | ? | ?
Cc1ccccc1-c1cnn(-c2cccc([N+](=O)[O-])c2)c1N | -11% | -20%
O=C(NCc1ccc(F)cc1)c1nnc(Cc2cccc(F)c2)o1 | -6% | -11%
Nc1ccc(C#Cc2ccc3oc4ccccc4c(=O)c3c2)cc1 | -16% | ?
Nc1ncnc2c1ncn2[C@@H]1O[C@H](CNS(=O)(=O)C2CC2)[C@@H](O)[C@H]1O | -1% | i
COc1ccc2oc(=O)c(-c3nnc(N)s3)cc2c1 | 3% | i
Cc1cc(C=C2C(=O)NC(=O)NC2=O)c(C)n1-c1ccc2c(c1)OCO2 | -16% | i
C/C(=N\NC(=O)c1cccs1)c1ccc2ccccc2c1 | -12% | -25%
CC(=O)Nc1ccc(NC(=O)CN2C(=O)CC(c3ccco3)Sc3ccccc32)cc1 (stereo not drawn) | 7% | 6%
COC(=O)CNC(=O)Cn1cnc2sc(C)c(S(=O)(=O)N3CCN(c4ccccc4OC)CC3)c2c1=O | -2% | -8%
Cc1ccccc1C(OCCN(C)C)c1ccccc1 (stereo not drawn) | -24%&-18%&-15%&-7% | -2%&-8%&-5%
O=C(CNC(=O)c1ccccc1)OCCCOC(=O)CNC(=O)c1ccccc1 | -7% | i
COc1cc(Cn2c(=O)c3c(OC)c(C)cnc3n(C)c2=O)cc(OC)c1 | -14% | -15%
Cc1ccccc1Nc1nc(N)nc(CN2CCN(c3ccccn3)CC2)n1 | -22% | .
COc1ccc(NC(=O)CSc2cn[nH]n2)cc1OC | -18% | -23%
CC1(CCc2ccccc2)NC(=O)NC1=O (stereo not drawn) | -1% | -15%
Cc1nc2c(ccc3nc(NC(=O)C4CC4)sc32)s1 | ? | ?
O=C(CN(Cc1ccccc1F)S(=O)(=O)c1ccc(Cl)cc1)NCC1CCCO1 (stereo not drawn) | -13% | -6%
CCOC(=O)c1c(/N=C/c2cc([N+](=O)[O-])ccc2O)sc(C)c1C | -1% | -11%
COc1cc(C(CC(=O)Nc2ccc(C)c(F)c2)N2Cc3ccccc3C2=O)cc(OC)c1OC (stereo not drawn) | -9% | -9%
COc1ccc(C(CNc2nc(-c3cccnc3)nc3ccccc23)N(C)C)cc1 (stereo not drawn) | ? | -11%
Cc1ccc(C(=O)Nc2ccc(N3CCOCC3)cc2)cc1 | -3% | -13%
Cc1ccc(-c2nnn(CC(=O)NCc3ccccc3)n2)c(-n2cnnn2)c1 | -22% | .

Outcome played no part in choosing rows; any-hit rate near 0.86%.
